Autofluor counter – compound fluorescence in toxin protease inhibitor counterscreen. compound autofluorescence counterscreen, microsphere flow cytometry; stronger effect = higher value. fluorescence intensity (concentration not given with the values). actives 3.1% (n = 360,000). AID 624483;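 active = at least 3 SD above the mean of all compounds, about 16000 in these data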;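 also: 100 nL of 1 mM stock went into each well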
BJeLR viability – kills HRASV12-expressing BJeLR cells; AID 1554; BJeLR (HRASV12) viability, CellTiter-Glo ATP luminescence, 48 h; reference of the scale not given here; actives 0.17% (n = 300,000); inhibition, % (test concentration not listed);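 active = replicate mean above 50%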;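 also: 50 nL library stock added to about 25 µL; numbers are from one replicate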
RN4220 kill – kills Staphylococcus aureus RN4220; inhibition, % (concentration not given with the values); actives 0.33% (n = 330,000); S. aureus RN4220 growth, OD600, 16 h;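 active = z-score of -3 or lower and OD600 up to 0.18 on both plates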;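 also: plate controls were untreated cells for no effect and reference antibiotic for full effect; stock transfer was 100 nL into about 80 µL; one replicate is shown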
Mtb hypoxia rep – inhibitors of hypoxia-regulated fluorescent reporter in Mycobacterium tuberculosis | M. tuberculosis hypoxia-regulated fluorescent reporter, fluorescence | actives 0.1% (n = 300,000) | fluorescence inhibition, % (no concentration beside the values) | AID 1159583;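 active = 35 to 45% if threefold the growth effect, above 45% if 1.5-fold the growth effect; inactive = the rest, general growth blockers included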;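 also: wells of about 50 µL received 100 nL stock; 0% = vehicle wells and 100% = reference inhibitor wells; whole bacteria with a GFP reporter of the hypoxia response; strong numbers were not always called active; many hits fall short of the cut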
Sa ugtP lethal – compounds lethal to S. aureus RN4220 ugtP deletion mutant. OD600 growth, 16 h; some inactives read as strong as hits. growth inhibition, % (test concentration not listed). actives 0.54% (n = 330,000). AID 1259309;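 active = z-score under -3 and OD600 up to 0.15 on both plates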;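 also: plate controls were untreated wells for no effect and antibiotic for full effect; wells of about 80 µL received 100 nL stock; the first replicate is given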
PrP UTR inh – inhibition of PrP 5' UTR reporter expression | cell-based PrP 5' UTR mRNA reporter, plate reader | inhibition, % (concentration not given with the values) | actives 0.35% (n = 340,000) | AID 488862;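 active = every replicate at 50% or more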;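 also: 0 = median of the neutral control wells; tested in H4 reporter cells; numbers are from one replicate; inactives centre near -14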
Mtb hypoxia rep growth – also measured in Mtb hypoxia rep; calls as there; growth inhibition, %; measured here: M. tuberculosis growth (absorbance);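 0% = vehicle and 100% = reference antibiotic; read after six days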
Numbers without * were called inactive; nt = no result given.

SMILES	Autofluor counter	BJeLR viability	RN4220 kill	Mtb hypoxia rep	Mtb hypoxia rep growth	Sa ugtP lethal	PrP UTR inh
CCOc1ccccc1C=NNc1nc2c(N)ncnc2n1[C@H]1O[C@@H](CO)[C@H](O)[C@@H]1O	nt	nt	4.7	0	-7	8	nt
CCN1C(=O)S/C(=C/c2ccc(Oc3ccc([N+](=O)[O-])cn3)c(OC)c2)C1=O	2181	-5	nt	nt	nt	nt	-22
Cc1ccc(NS(=O)(=O)c2cccc(C(=O)NCC(c3ccc(F)cc3)N3CCOCC3)c2)cc1 (centres undefined)	4000	-3	0.9	13	7	9	-9
CCCOC(=O)c1cc(NC(=O)/C=C/c2ccccc2)ccc1O	5089	7	-7.5	-1	-4	-1	nt
COc1ccc(S(=O)(=O)N(CCCN2CCOCC2)Cc2cccc3ccccc23)cc1	2456	-5	10	4	8	3	-9
O=C(c1cc(-c2ccccc2O)on1)N1CCc2ccccc2C1	6115	-5	-4.1	nt	nt	-3	-19
CCOc1ccc(CCNC(=O)CS(=O)Cc2nc(-c3ccccc3Cl)oc2C)cc1OCC (centres undefined)	5262	1	5.6	-2	8	5	-16
CC(NC(=O)c1ccc(Cl)c(Cl)c1)c1ccc(-c2ccccc2)cc1 (centres undefined)	4091	0	-16	12	7	-7	-6
CCN1C(=O)[C@H]2[C@@H](c3ccc(-c4ccc(F)cc4)cc3)N[C@@](CC(C)C)(C(=O)OC)[C@H]2C1=O	4460	-15	nt	nt	nt	nt	-7
CCCNC(=O)c1cc(-c2ccccc2)c(N2CCCCC2)s1	3625	2	3.3	0	9	-5	-5
C=CCn1cccc(C(=O)Nc2ccc(Cl)cc2)c1=O	3744	1	0.1	12	5	7	-45
Cc1ccsc1C(=O)C1CCCN(Cc2cnc(N3CCOCC3)s2)C1 (centres undefined)	3672	11	8.2	-4	4	3	-11
O=C(Nc1ccc(O)c(-c2nc3ccccc3s2)c1)c1cc(=O)c2ccccc2o1	7577	-2	nt	nt	nt	nt	-14
O=C(O)c1ccccc1C(=O)NCCc1c(C(=O)O)[nH]c2ccc(Cl)cc12	nt	-2	0.7	3	17	6	4
COc1ccccc1NC(=O)C(C)OC(=O)/C(=C/c1ccccc1)NC(C)=O (centres undefined)	5155	-5	nt	nt	nt	nt	-8
CC(=O)Nc1ccc(NS(C)(=O)=O)cc1	3500	-23	1.2	1	-4	2	-6
C#CCOCCOCCOCCNc1nc(N2CCN(C(=O)Cn3cc(CCCCN)nn3)CC2)nc(N2CCN(C(=O)[C@H](C(C)C)n3cc(CCO)nn3)CC2)n1	4185	-1	nt	nt	nt	nt	-13
COc1ccc(C(=O)NC(=S)NC(C)(C)C)cc1Br	3029	-5	nt	nt	nt	nt	-57
Cc1cc(Br)ccc1NC(=O)C1CCCO1 (centres undefined)	9465	11	5.5	7	5	14	-16
COC(=O)CN(c1ccc(Cl)cc1C)S(C)(=O)=O	2590	-7	2.7	7	7	-2	-85
Cc1ccccc1/C=N/Nc1ccc(Cl)nn1	3219	6	nt	nt	nt	nt	-40
COc1ccc(NC(=O)COc2ccc3c(c2)CCC3)cc1S(N)(=O)=O	4377	nt	3.3	8	1	1	-24
O=CC1=C(N2CCOCC2)/C(=C/c2ccc(Cl)cc2)CC1	4370	-2	1.6	16	15	9	4
CCC(=O)NC(=S)Nc1ccc(NC(=O)CC)cc1	1968	-6	4.5	10	13	17	-5
COc1cc(/C=N/NC(=O)c2ccc(N)cc2)ccc1OC(=O)c1cccc(C)c1	4734	-3	nt	nt	nt	nt	-14
SMILES	Autofluor counter	BJeLR viability	RN4220 kill	Mtb hypoxia rep	Mtb hypoxia rep growth	Sa ugtP lethal	PrP UTR inh
O=C(NCc1ccc(F)cc1)c1cccc(S(=O)(=O)N2CCCC2)c1	2189	6	-7.9	nt	nt	11	-16
CN(C)S(=O)(=O)c1ccc(C(=O)Nc2cccc(C(=O)N3CCOCC3)c2)cc1	5342	-1	-1.6	3	8	3	-4
Cc1ccc(CN2CCN(/N=C/c3cc(Br)cc(Br)c3O)CC2)c(C)c1	2377	-7	nt	nt	nt	nt	-1
CCCS(=O)(=O)N1CCN(CCN2C(=O)c3cccc4cccc(c34)C2=O)CC1	3592	2	3.7	7	4	7	-25
O=C(CSc1ncn[nH]1)N1c2ccccc2Sc2ccccc21	6254	11	6.4	12	6	10	-26
Clc1cc(NCc2ccccc2)ncn1	4107	8	4.0	5	7	3	-16
CCc1ccc(N2CCN(CCNC(=O)Nc3ccccc3)CC2)cc1	3228	-3	5.8	-3	1	11	-28
CCOc1cc(/C=C/C(=O)c2ccc(OC)c(CN3CCOCC3)c2)cc(Br)c1O	5924	-4	0.1	2	7	-9	4
COC(=O)c1ccc(C2CC(=O)Nc3cc(OC)c(OC)c(OC)c32)cc1 (centres undefined)	3380	-4	0.1	nt	nt	4	-3
O=C(c1ccc(Cl)cc1)C1CCCN(Cc2cccc3cnccc23)C1 (centres undefined)	8499	2	0.6	-9	4	8	-25
CN(C)CC(C)(C)CNC(=O)c1cc(Br)cc(Br)c1O	4399	nt	0.9	2	5	0	-6
CCc1nnc(NC(=O)C=C(C)C)s1	3167	6	16	-3	4	5	-17
CCOC(=O)N1CCN(C(=O)CSc2cc(C)nc3c(-c4ccccc4OC)c(C)nn23)CC1	10357	-4	0.5	-23	-10	5	-17
COc1ccc(OC)c(C=NNC(=O)c2cc3c(OC)c(OC)ccc3[nH]2)c1	nt	nt	-1.5	3	8	0	nt
COc1cc(C(=O)Nc2ccc3oc(-c4cccnc4)nc3c2)cc(OC)c1OC	3855	10	3.1	17	20	14	-15
COc1cccc(CN2CCN(Cc3cccc4c3OCO4)CC2CCO)c1 (centres undefined)	4355	-1	2.8	2	10	-2	-21
CC1CCCCC1=NNS(=O)(=O)c1ccc(Br)cc1 (centres undefined)	nt	nt	5.7	13	5	0	nt
CSC1=N/C(=C\c2c(F)cccc2Cl)C(=O)S1	2169	-1	0.9	10	-1	1	-25
Cc1cccc(SC2CCN(C(=O)C3CCC(=O)N(C4CC4)C3)CC2)c1 (centres undefined)	4409	2	-0.6	8	2	0	1
Cc1ccc(CNC(=O)CN2C(=O)c3ccccc3S2(=O)=O)cc1	4378	-6	4.7	-7	-10	0	2
COc1ccc(CN2CCN(C(=O)c3ccc(F)cc3)CC2)c(OC)c1	3603	2	-0.9	1	10	0	-41
O=C(C1=CC(c2ccc(Br)cc2)CC(OCc2ccc(CO)cc2)O1)N1CCN(Cc2ccccc2)CC1 (centres undefined)	nt	nt	16	0	0	4	nt
O=C(CN1CCOCC1)N/N=C/c1ccc(-c2cccc(Cl)c2Cl)o1	4204	8	nt	nt	nt	nt	-24
COc1ccc(S(=O)(=O)Nc2nc3n(n2)C(c2ccc(Cl)cc2)CC(=O)N3)cc1 (centres undefined)	2626	nt	19	6	1	17	-6
COc1ccc(-c2c(-c3ccc(O)cc3O)n[nH]c2C(F)(F)F)cc1	3294	1	-19	12	7	-4	11

Full records from above.
COc1ccc(CN2CCN(C(=O)c3ccc(F)cc3)CC2)c(OC)c1 as listed: Autofluor counter = 3603; BJeLR viability = 2; RN4220 kill = -0.9; Mtb hypoxia rep = 1; Mtb hypoxia rep growth = 10; Sa ugtP lethal = 0; PrP UTR inh = -41
CCc1ccc(N2CCN(CCNC(=O)Nc3ccccc3)CC2)cc1 as listed: Autofluor counter = 3228; BJeLR viability = -3; RN4220 kill = 5.8; Mtb hypoxia rep = -3; Mtb hypoxia rep growth = 1; Sa ugtP lethal = 11; PrP UTR inh = -28
CCc1nnc(NC(=O)C=C(C)C)s1 as listed: Autofluor counter = 3167; BJeLR viability = 6; RN4220 kill = 16; Mtb hypoxia rep = -3; Mtb hypoxia rep growth = 4; Sa ugtP lethal = 5; PrP UTR inh = -17

(further entries)
SMILES	Autofluor counter	BJeLR viability	RN4220 kill	Mtb hypoxia rep	Mtb hypoxia rep growth	Sa ugtP lethal	PrP UTR inh
CCCC(=O)O[C@]1(C(=O)CO)CCC2C3CCC4=CC(=O)CC[C@]4(C)C3C(O)C[C@@]21C (some centres undefined)	nt	nt	11	4	4	1	nt
O=C(NN=C/C=C\c1ccccc1)c1cnccn1	nt	nt	4.6	7	3	1	nt
CN(C(=O)c1cccc(NC(=O)Cc2cccc(NC(=O)C3CCCN(C(=O)CCc4ccccc4)C3)c2)c1)C1CCC1 (centres undefined)	3981	nt	1.1	-6	6	4	-24
c1cnc2ccc3ncccc3c2c1	4158	-7	-2.1	-10	13	-1	1
O=C(COC(=O)C1CC(=O)N(Cc2ccccc2)C1)c1ccc(F)cc1 (centres undefined)	4172	0	2.8	-5	11	-1	-11
CC(=O)Nc1cccc(Oc2cc(C#N)c(C#N)cc2N2CCCCCC2)c1	3025	2	3.2	1	7	4	10
CC(C)[C@H](NC(=O)C1CCN(S(=O)(=O)c2ccccc2)CC1)C(=O)NCc1ccccc1	4008	5	0.0	2	-8	0	-3
CCCCn1cnc2c(=S)nc(N)[nH]c21	4613	6	7.1	-2	-5	1	-12
COc1ccc(S(=O)(=O)N2CCN(c3ccccc3)CC2)cc1	3699	3	5.1	12	1	12	-16
Cn1c(=O)cc(SCC(=O)NCCC2=CCCCC2)c2ccccc21	8875	-15	nt	nt	nt	nt	-28
O=C(Nc1ccccc1Cl)NC1(C(=O)N2CCCC2)CCCCC1	3149	-2	-16	10	11	-3	-3
Cc1ccc(OC(=O)c2ccccc2C(=O)OCC(F)(F)C(F)F)cc1	2780	-1	-1.2	1	1	14	-13
O=C(/C=C/c1ccco1)OCc1nnc(-c2ccccc2)o1	4352	4	4.6	6	2	-5	-22
O=C(CNS(=O)(=O)c1cccs1)NCc1ccccc1	4496	4	4.9	3	-1	11	-13
O=C(Nc1ccc(S(=O)(=O)N2CCCC2)cc1)C1CCCCC1	3982	7	4.6	5	-2	10	-21
COc1ccc(C(=O)N2CCCC2)cc1	14996	-7	-2.0	-2	0	1	-11
Cn1c(N2CCCCC2)nc2c1c(=O)n(Cc1cccc(Br)c1)c(=O)n2C	nt	-7	5.5	14	5	-1	-16
CCCS(=O)(=O)c1c(S(=O)(=O)CCC)c2c(N)cccn2c1C(=O)c1ccc(Br)cc1	3208	-10	1.6	-3	7	7	-10

6 records drawn at random from the list so far:
SMILES	Autofluor counter	BJeLR viability	RN4220 kill	Mtb hypoxia rep	Mtb hypoxia rep growth	Sa ugtP lethal	PrP UTR inh
O=C(COC(=O)C1CC(=O)N(Cc2ccccc2)C1)c1ccc(F)cc1 (centres undefined)	4172	0	2.8	-5	11	-1	-11
O=C(NN=C/C=C\c1ccccc1)c1cnccn1	nt	nt	4.6	7	3	1	nt
O=C(CNS(=O)(=O)c1cccs1)NCc1ccccc1	4496	4	4.9	3	-1	11	-13
Cn1c(=O)cc(SCC(=O)NCCC2=CCCCC2)c2ccccc21	8875	-15	nt	nt	nt	nt	-28
c1cnc2ccc3ncccc3c2c1	4158	-7	-2.1	-10	13	-1	1
COc1ccc(S(=O)(=O)N2CCN(c3ccccc3)CC2)cc1	3699	3	5.1	12	1	12	-16
